PrP UTR inh: inhibition of PrP 5' UTR reporter expression. inhibition, % (test concentration not listed). hit rate 0.35% among 340,000. cell-based PrP 5' UTR mRNA reporter, plate reader;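 active means every replicate at 50% or more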;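 further: 0 = median of the neutral control wells; tested in H4 reporter cells; numbers are from one replicate; inactives centre near -14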
BJeLR viability: MLPCN primary cell-based screen for lethality selective to Ras in HRASV12 cells. hit rate 0.17% among 300,000. inhibition, % (concentration not given with the values). BJeLR (HRASV12) viability, CellTiter-Glo ATP luminescence, 48 h; reference of the scale not given here;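 active means replicate mean above 50%; inconclusive means above 50% but judged a plate artefact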;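 further: 50 nL library stock added to about 25 µL; numbers are from one replicate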
RN4220 kill: growth inhibition of S. aureus RN4220, primary screen, OD600; AID 1259311, 2017; inhibition, % (no concentration beside the values); hit rate 0.33% among 330,000; 16 h;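 active means z-score of -3 or lower and OD600 up to 0.18 on both plates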;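 further: plate controls were untreated cells for no effect and reference antibiotic for full effect; stock transfer was 100 nL into about 80 µL; one replicate is shown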
Autofluor counter: compound fluorescence in toxin protease inhibitor counterscreen | compound autofluorescence counterscreen, microsphere flow cytometry; hits give high values | fluorescence intensity (test concentration not listed) | hit rate 3.1% among 360,000 | AID 624483;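 active means at least 3 SD above the mean of all compounds, about 16000 in these data; inconclusive means too few beads counted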;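 further: 100 nL of 1 mM stock went into each well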
Mtb hypoxia inh: PubChem AID 1159583. M. tuberculosis hypoxia-regulated fluorescent reporter, fluorescence. fluorescence inhibition, % (test concentration not listed). hit rate 0.1% among 300,000;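 active means 35 to 45% if threefold the growth effect, above 45% if 1.5-fold the growth effect; inactive means the rest, general growth blockers included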;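 further: wells of about 50 µL received 100 nL stock; 0% = vehicle wells and 100% = reference inhibitor wells; whole bacteria with a GFP reporter of the hypoxia response; strong numbers were not always called active; many hits fall short of the cut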
ugtP null kill: growth inhibition of ugtP-null S. aureus, primary screen, RN4220 ugtP deletion, OD600 | growth inhibition, % (concentration not given with the values) | hit rate 0.54% among 330,000 | 16 h; some inactives read as strong as hits;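 active means z-score under -3 and OD600 up to 0.15 on both plates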;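 further: plate controls were untreated wells for no effect and antibiotic for full effect; wells of about 80 µL received 100 nL stock; the first replicate is given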
Mtb hypoxia inh growth: further read-out of Mtb hypoxia inh, marked with its call; growth inhibition, %; measured here: M. tuberculosis growth (absorbance);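 0% = vehicle and 100% = reference antibiotic; read after six days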
* hit, by the source's call; u = inconclusive; x = no result given.

1: CC(C)c1ccc(OCC(=O)Nc2ccc(S(=O)(=O)Nc3ccccn3)cc2)cc1
2: CCOC(=O)c1nn(-c2ccc(OC)cc2)c(=O)c2c(N)scc12
3: CC(=O)N1CN(S(=O)(=O)c2ccc(C)cc2)CC1C (stereo not drawn)
4: O=C(CSc1nc2ccccc2c(=O)n1CCCO)N1CCc2ccccc21
5: S=c1[nH]nc(-c2cccc(Cl)c2)n1/N=C/c1ccc(-c2ccccc2Br)o1
6: O=C(COC(=O)CNS(=O)(=O)c1ccc(F)c(F)c1F)NC1CC1

assay / entry,1,2,3,4,5,6
Autofluor counter,3653,6597,5747,2590,4717,5857
PrP UTR inh,-15,-35,-18,-18,-60,-30
BJeLR viability,3,0,2,-4,-22,2
Mtb hypoxia inh growth,5,4,4,2,x,1
RN4220 kill,4.1,11,0.0,0.8,x,3.6
Mtb hypoxia inh,14,18,-1,-10,x,0
ugtP null kill,1,-3,-7,1,x,8

Rewritten in markdown: part of the list above.
| No. | SMILES | Autofluor counter | PrP UTR inh | BJeLR viability | Mtb hypoxia inh growth | RN4220 kill | Mtb hypoxia inh | ugtP null kill |
| --- | --- | --- | --- | --- | --- | --- | --- | --- |
| 1 | CC(C)c1ccc(OCC(=O)Nc2ccc(S(=O)(=O)Nc3ccccn3)cc2)cc1 | 3653 | -15 | 3 | 5 | 4.1 | 14 | 1 |
| 5 | S=c1[nH]nc(-c2cccc(Cl)c2)n1/N=C/c1ccc(-c2ccccc2Br)o1 | 4717 | -60 | -22 | x | x | x | x |

In a second layout: entries from further up
| item | molecule | Autofluor counter | PrP UTR inh | BJeLR viability | Mtb hypoxia inh growth | RN4220 kill | Mtb hypoxia inh | ugtP null kill |
| --- | --- | --- | --- | --- | --- | --- | --- | --- |
| 3 | CC(=O)N1CN(S(=O)(=O)c2ccc(C)cc2)CC1C (stereo not drawn) | 5747 | -18 | 2 | 4 | 0.0 | -1 | -7 |
| 4 | O=C(CSc1nc2ccccc2c(=O)n1CCCO)N1CCc2ccccc21 | 2590 | -18 | -4 | 2 | 0.8 | -10 | 1 |

The results go on.
7: CN(CC(=O)Nc1ccc(OC(F)F)cc1)S(=O)(=O)/C=C/c1ccccc1
8: COc1ccc(-c2csc3ncnc(N4CCN(S(=O)(=O)c5cccc(F)c5)CC4)c23)cc1
9: Cc1ccccc1-n1ccnc1SCC(=O)NC1CCCC1
10: CN(C)S(=O)(=O)c1ccc2nnn(OCC(=O)NC3CCS(=O)(=O)C3)c2c1 (stereo not drawn)
11: CNS(=O)(=O)c1cc(-c2nnc(Nc3ccc(CC(N)=O)cc3)c3ccccc23)ccc1C
12: COc1ccc(NC(C)C(=O)N2CCN(Cc3ccccc3)CC2)cc1 (stereo not drawn)

assay / entry,7,8,9,10,11,12
Autofluor counter,u,11100,5682,5292,3178,3939
PrP UTR inh,-57,-15,-4,x,-20,-7
BJeLR viability,x,7,9,x,-9,-1
Mtb hypoxia inh growth,2,-3,0,3,4,x
RN4220 kill,3.6,2.8,2.7,4.0,5.1,x
Mtb hypoxia inh,11,-9,-3,12,16,x
ugtP null kill,3,-17,3,2,1,x

13: CC(=O)Nc1ccc(C(C)=NNC(=O)CN(c2ccccc2Br)S(C)(=O)=O)cc1
14: CCc1ccc(N2CC34C=CC(O3)C(C(=O)OC(C)C)C4C2=O)cc1 (stereo not drawn)
15: CCN(CC)c1ccc(C(=O)NNC(=O)c2ccc3c(=O)n4c(nc3c2)CCC4)cc1
16: CC(C)Oc1cccc(C(=O)C2CCCN(Cc3cnc(N4CCCC4)s3)C2)c1 (stereo not drawn)
17: COc1cccc(C(=O)Nc2cc(OC)ccc2NC(=O)c2ccco2)c1
18: OCCNc1nc(N2CCN(Cc3ccccc3)CC2)nc2ccccc12

assay / entry,13,14,15,16,17,18
Autofluor counter,x,5748,u,4003,5866,4391
PrP UTR inh,x,-32,-17,-14,15,-38
BJeLR viability,x,6,x,20,-7,9
Mtb hypoxia inh growth,-2,x,6,-6,4,13
RN4220 kill,1.7,0.0,2.9,0.6,1.8,-0.7
Mtb hypoxia inh,0,x,1,-5,-3,12
ugtP null kill,4,6,-4,13,-4,-2

19: Cc1ccc(C(=O)Nc2cccnc2)cc1S(=O)(=O)N1CCCCC1
20: O=C(CCC(=O)NNC(=O)COc1ccc(Br)cc1Br)NCc1ccccc1
21: CCNc1nc(Nc2ccc(C)c(Cl)c2)c2cnn(C)c2n1
22: CC(OC(=O)c1ccccc1)C(=O)NCc1ccco1 (stereo not drawn)
23: CCOC(=O)c1ccc2c(c1)NC(=O)C(N1CCN(c3ccc(OC)cc3)CC1)S2 (stereo not drawn)
24: CCOC(=O)C[C@H]1c2ccccc2S(=O)(=O)N1c1cccc(OC)c1

assay / entry,19,20,21,22,23,24
Autofluor counter,3710,3611,3218,x,4250,3256
PrP UTR inh,-29,-12,-1,x,-37,-7
BJeLR viability,-4,-4,4,x,2,0
Mtb hypoxia inh growth,13,1,0,3,5,x
RN4220 kill,0.8,5.4,6.8,0.1,1.9,x
Mtb hypoxia inh,2,-1,5,-8,0,x
ugtP null kill,-6,-4,-12,-5,8,x

25: NS(=O)(=O)c1ccc(CNC(=O)/C=C/c2ccc(Cl)c(Cl)c2)cc1
26: Cc1[nH]c2ccc(C(=O)OC(C)C(=O)NCc3ccccc3)cc2c1C (stereo not drawn)
27: Cc1ccc(S(=O)(=O)N2CCOCC2)c(C)c1-n1cnnn1
28: CC(=O)NC(Cc1c[nH]c2ccccc12)C(=O)N1CCN(S(=O)(=O)c2ccccc2)CC1 (stereo not drawn)
29: Nc1nc(CSC(=S)N2CCOCC2)nc(Nc2ccc(F)cc2)n1
30: O=C(Nc1ccc(Cl)c(Cl)c1)C1C2C=CC3(O2)C1C(=O)N(CCN1CCCCC1)C3C(=O)NC1CCCCC1 (stereo not drawn)

assay / entry,25,26,27,28,29,30
Autofluor counter,2574,6076,11752,8302,10234,6118
PrP UTR inh,-3,-28,-27,-24,-16,-24
BJeLR viability,6,6,3,x,8,8
Mtb hypoxia inh growth,2,-3,2,4,x,4
RN4220 kill,-0.7,3.3,-0.7,1.3,x,6.1
Mtb hypoxia inh,5,13,13,3,x,0
ugtP null kill,2,1,7,2,x,8

31: O=c1oc2ccccc2n1CCc1ccccc1
32: O=C(COC(=O)c1cn(-c2ccccc2)nc1-c1cccnc1)NC1CC1
33: CC1CN=C(N(C(=O)Nc2ccccc2)c2ccc(S(=O)(=O)N3CCOCC3)cc2)S1 (stereo not drawn)
34: CCOC(=O)N1CCN(CCC(=O)c2ccc(Cl)cc2)CC1
35: Cc1ccc(Nc2ncnc3sc(C)c(C)c23)cc1
36: CN(C(=O)CN1C(=O)/C(=C/c2ccc(Cl)cc2)SC1=S)C1CCS(=O)(=O)C1 (stereo not drawn)

assay / entry,31,32,33,34,35,36
Autofluor counter,x,5661,2495,2579,5397,5745
PrP UTR inh,-24,-8,-25,-10,-12,-38
BJeLR viability,0,1,-6,3,0,10
Mtb hypoxia inh growth,7,4,3,x,1,3
RN4220 kill,3.0,-0.5,-6.2,-3.1,8.0,4.2
Mtb hypoxia inh,9,3,4,x,8,11
ugtP null kill,-2,-4,-7,32,-3,10

37: Cn1c(=O)n(C)c2cc(C=NNC(=S)NCc3ccccc3)ccc21
38: Cc1ccc2nc(N(CCN3CCOCC3)C(=O)CCS(=O)(=O)c3ccccc3)sc2c1
39: CCOc1ccc(-c2nc(-c3cccnc3)no2)cc1
40: CN1CCN(C(=O)c2ccc3c(=O)n(CCc4ccccc4)c(=S)[nH]c3c2)CC1
41: Cc1ccc(C)c(NC(=O)COc2coc(CN3CCc4ccccc43)cc2=O)c1
42: Cc1cc(Cl)ccc1OCCCC(=O)OCC(=O)c1c(N)n(C)c(=O)n(C)c1=O

assay / entry,37,38,39,40,41,42
Autofluor counter,x,6068,3382,5113,5749,4062
PrP UTR inh,x,-31,-5,-13,-5,-17
BJeLR viability,x,5,-4,x,-5,-5
Mtb hypoxia inh growth,4,0,3,x,5,-2
RN4220 kill,16,1.0,1.3,-0.4,1.0,1.9
Mtb hypoxia inh,5,-5,-1,x,20,-2
ugtP null kill,28,4,0,-4,1,9

43: CC1CCCC(C)N1CC(O)COCC1COc2ccccc2O1 (stereo not drawn)
44: Cc1ccc([C@@H]2[C@@H]3C(=O)N(C)C(=O)[C@@H]3[C@]3(Cc4ccccc4)C(=O)N(Cc4ccccn4)CC(=O)N23)o1
45: Cc1cccc(N(C(=O)CCC(=O)Nc2ccccn2)C(C(=O)NC(C)C)c2ccc(F)cc2)c1 (stereo not drawn)
46: CCCOc1ccc(C(=O)Nc2cc(S(=O)(=O)N3CCOCC3)ccc2N2CCN(CC)CC2)cc1OC
47: Oc1ccc(/C=N/n2c3ccccc3c3ccccc32)cc1
48: O=C(O)c1ccc(NN=Cc2ccc(-c3ccccc3Cl)o2)cc1

assay / entry,43,44,45,46,47,48
Autofluor counter,2208,4070,3790,u,u,x
PrP UTR inh,-8,6,-17,-3,-5,x
BJeLR viability,17,-2,-5,x,-6,x
Mtb hypoxia inh growth,x,x,15,3,x,-3
RN4220 kill,1.0,x,5.0,1.9,x,1.1
Mtb hypoxia inh,x,x,5,6,x,17
ugtP null kill,-4,x,3,1,x,-5

49: O=C(NC(=O)c1c(Cl)cccc1Cl)Nc1ccc(Oc2cccnc2)nc1
50: CN(C)c1ccc(NC(=S)NC(=O)C=Cc2ccco2)cc1
51: O=C(NCc1ccc(F)cc1)c1ccc(CS(=O)(=O)Cc2ccc(F)cc2)o1
52: O=c1c(Cl)c(N2CCN(S(=O)(=O)c3ccccc3)CC2)cnn1-c1ccccc1
53: COc1ccc(NS(=O)(=O)c2cccc(-c3nnc4n3CCCCC4)c2)cc1
54: CCOc1cc(N2CCOCC2)c(OCC)cc1NC(=O)CCC1CCCC1

assay / entry,49,50,51,52,53,54
Autofluor counter,4763,x,2931,7880,3125,3926
PrP UTR inh,-18,x,-26,-6,-9,-17
BJeLR viability,-9,x,18,9,1,-10
Mtb hypoxia inh growth,0,5,6,3,6,x
RN4220 kill,-1.3,3.6,5.7,4.3,-13,3.3
Mtb hypoxia inh,-11,1,7,-3,5,x
ugtP null kill,11,-5,11,2,-3,2

55: CCC(c1nnnn1Cc1ccc(F)cc1)N1CCN(C)CC1 (stereo not drawn)
56: O=C(NC1=NCCS1)c1cccc(S(=O)(=O)N2CCOCC2)c1
57: COc1cccc(OC)c1C(=O)Nc1cc(C)on1
58: COc1ccc(Cl)cc1C(=O)NCc1ccco1
59: O=C(NC1CCCCC1)C(O)C(O)C(=O)NC1CCCCC1 (stereo not drawn)
60: Cc1[nH]c(C)c(S(=O)(=O)NCc2ccco2)c1C(=O)N1CCCCC1

assay / entry,55,56,57,58,59,60
Autofluor counter,4499,4249,2497,4549,x,5366
PrP UTR inh,-11,-2,4,-21,x,-14
BJeLR viability,-7,x,1,0,x,4
Mtb hypoxia inh growth,7,5,4,-1,3,7
RN4220 kill,1.7,2.3,-16,8.3,4.3,1.3
Mtb hypoxia inh,-6,5,1,8,5,3
ugtP null kill,4,7,0,6,-1,3

61: OC1(Cc2ccn[nH]2)CCCCC1
62: CN(C)C=Nc1ncc2c([nH]c3ccccc32)c1C#N
63: CC(CC(=O)Nc1ccc(Cl)c(S(=O)(=O)N2CCOCC2)c1)c1ccccc1 (stereo not drawn)
64: CN(Cc1ccccc1)S(=O)(=O)c1ccc(Cl)c(C(=O)NCc2ccc3c(c2)OCO3)c1
65: CCN1C(=O)c2ccccc2Sc2ccc(C(=O)NC(C)C)cc21

assay / entry,61,62,63,64,65
Autofluor counter,x,3034,u,10498,3865
PrP UTR inh,x,-29,1,-21,-16
BJeLR viability,4,2,x,-10,-4
Mtb hypoxia inh growth,x,x,10,2,1
RN4220 kill,-0.6,1.6,-7.0,5.3,3.4
Mtb hypoxia inh,x,x,1,10,-1
ugtP null kill,0,0,-14,19,-1

Assay outcomes: PubChem BioAssay, several laboratories
